DUX4 inh: blocks DUX4-driven transcriptional activation. 293T-iDUX4 ZSCAN4-Gaussia luciferase reporter, 24 h; stronger effect = lower value. activity change, negative = inhibition, % (no concentration beside the values). 37,000 tested, 0.8% active. AID 1224904;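 active = -10% or lower and over 25 points stronger than a control reporter; inconclusive = -10% or lower with a smaller gap; inactive = above -10%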;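 also: 0% = median of neutral control wells and -100% = median of positive control wells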
DUX4 inh difference: also measured in DUX4 inh; calls as there; Gaussia minus Italica difference, %; measured here: selective DUX4 reporter inhibition;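 worked out from the two reporters; negative = selective loss of the DUX4 reporter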
DUX4 inh control: second read-out of DUX4 inh, no call of its own (marks repeat the call); activity change, negative = inhibition, %; measured here: Italica tet-on control reporter;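 0 = neutral control and -100 = positive control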
An asterisk follows results filed as active; ? = inconclusive; · = no result given; ! = not active in a repeat. These rows are one share of the data. The share of hits here may be higher or lower than overall.

DUX4 inh,DUX4 inh control,DUX4 inh difference,compound
?,·,·,Cc1ccccc1S(=O)(=O)N1CC[C@@H]2[C@@H](CO)Nc3ccc(-c4ccccc4F)cc3[C@@H]21
-2.1,1.2,-3.2,C[C@@H]1CCn2cc(nn2)COC[C@@H](Cc2ccccc2)NC1=O
-1.8,-3.7,1.9,Cc1noc(C)c1NC(=O)Nc1ccc2c(c1)C(=O)N([C@@H](C)CO)C[C@@H](C)[C@@H](CN(C)S(=O)(=O)c1cccs1)OCCCC[C@H](C)O2
-0.2,0.7,-0.9,O=C(O)[C@H]1[C@H](CO)[C@H]2Cn3c(ccc(-c4ccccc4)c3=O)[C@H]2N1Cc1ccccc1F
0.9,-4.4,5.3,COc1ccc(S(=O)(=O)Nc2ccc3c(c2)C(=O)N([C@H](C)CO)C[C@@H](C)[C@@H](CN(C)Cc2ccc(C(F)(F)F)cc2)OCCCC[C@H](C)O3)cc1
-2.0,-1.0,-1.0,COc1ccccc1CNC(=O)C[C@H]1C[C@H]2c3cc(NS(C)(=O)=O)ccc3O[C@H]2[C@@H](CO)O1
3.5,-2.0,5.4,CN1[C@H](C(=O)N2CCc3ccccc3C2)[C@@H](CO)[C@@H]2Cn3c(ccc(-c4ccccc4)c3=O)[C@@H]21
-2.3,-6.4,4.1,C[C@H](CO)N1C[C@H](C)[C@H](CN(C)S(=O)(=O)c2ccc(-c3ccccc3)cc2)OCc2cn(nn2)CCCC1=O
3.4,1.6,1.8,COc1cccc(NC(=O)N(C)C[C@H]2Oc3cc(-c4cccc(C(=O)N(C)C)c4)ccc3S(=O)(=O)N([C@H](C)CO)C[C@H]2C)c1
-9.4,-5.3,-4.0,Cc1ccccc1S(=O)(=O)NCC[C@@H]1CC[C@H](NC(=O)Nc2cccc(F)c2)[C@H](CO)O1
-2.2,-3.5,1.2,C[C@@H]1CN([C@@H](C)CO)C(=O)c2cccc(NC(=O)c3ccncc3)c2O[C@@H]1CN(C)CC1CCCCC1
-1.5,7.1,-8.6,C[C@H]1CCCCO[C@@H](CN(C)C(=O)NC2CCCCC2)[C@@H](C)CN([C@@H](C)CO)C(=O)c2cc(NC(=O)CCC(F)(F)F)ccc2O1
-6.7,0.2,-6.9,O=C(C[C@@H]1CC[C@H]2[C@@H](COC[C@@H](O)CN2C(=O)c2ccccc2F)O1)N1CCN(c2ccccc2)CC1
?,·,·,N#Cc1cccc(-c2ccc([C@H]3[C@@H](CO)N4CCCCN(C(=O)Nc5cccc(F)c5)C[C@H]34)cc2)c1
-2.6,0.1,-2.6,COc1ccccc1C#Cc1cnc2c(c1)C(=O)N([C@@H](C)CO)C[C@H](C)[C@H](CN(C)C(=O)CN(C)C)O2
1.5,0.6,0.9,CCCC(=O)Nc1ccc2c(c1)OC[C@@H](C)N(C(=O)CN(C)C)C[C@H](C)[C@@H](OC)CN(C)C2=O
-68.8*!,-39.2*,-29.6*,Cc1ccccc1S(=O)(=O)N1C[C@@H]2N[C@H](C1)C2c1ccc(-c2ccc(C#N)cc2)cc1 (stereo not given in full)
?,·,·,O=C(C[C@@H]1C[C@@H]2c3cc(NC(=O)c4ccc5c(c4)OCO5)ccc3O[C@@H]2[C@H](CO)O1)NCc1ccc(Oc2ccccc2)cc1
-5.9,-0.6,-5.3,CCCC(=O)Nc1ccc2c(c1)C(=O)N(C)C[C@H](OC)[C@@H](C)CN(Cc1ccc(F)cc1)[C@H](C)CO2
11.7,8.4,3.3,COc1ccc2c3c(n(C)c2c1)[C@@H](CO)N(S(C)(=O)=O)CC31CCN(C(=O)c2ccccn2)CC1
-3.4,-4.3,0.9,C[C@@H]1CCCCO[C@@H](CN(C)C(=O)CCC(F)(F)F)[C@@H](C)CN([C@@H](C)CO)C(=O)c2cc(NC(=O)Cc3ccccc3)ccc2O1
-7.1,5.2,-12.3,CCCNC(=O)[C@@H]1[C@@H](CO)[C@@H]2Cn3c(cccc3=O)[C@@H]2N1CC1CCCCC1
-2.2,0.9,-3.1,O=C1N[C@@H](Cc2ccccc2)COCc2cn(nn2)CC[C@@H]1Cc1ccc(Cl)cc1
0.3,-3.2,3.5,CCCNC(=O)N1C[C@H]2[C@@H](c3ccccc31)[C@@H](CO)N2C(=O)c1ccncc1
-2.5,1.5,-4.0,Cc1noc(C)c1S(=O)(=O)Nc1ccc2c(c1)C(=O)N([C@@H](C)CO)C[C@H](C)[C@H](CN(C)C(=O)CCC(F)(F)F)OCCCC[C@@H](C)O2
1.5,-1.1,2.6,CCC(=O)N1[C@@H]2CN(C(=O)c3ccncc3)c3ccccc3[C@@H]2[C@@H]1CO
5.2,-3.4,8.6,C[C@H]1CN([C@@H](C)CO)C(=O)CCCn2nncc2CO[C@H]1CN(C)S(=O)(=O)c1cn(C)cn1
-8.7,-0.9,-7.9,CN1c2ccc(-c3ccc(F)cc3)cc2[C@@H]2[C@@H](CCN2S(=O)(=O)c2ccc(F)cc2)[C@H]1CO
11.1,18.9,-7.7,Cc1ccc(-c2ccc([C@H]3[C@@H](CO)N4CCCCN(Cc5cncnc5)C[C@H]34)cc2)cc1
0.5,2.0,-1.5,COc1ccc(S(=O)(=O)N(C)C[C@H]2OCCCC[C@H](C)Oc3ccc(NC(=O)Nc4cccc5ccccc45)cc3C(=O)N([C@H](C)CO)C[C@H]2C)cc1
?,·,·,COCC(=O)N1CC2(CCN(Cc3ccc(Cl)cc3)CC2)c2c([nH]c3cc(OC)ccc23)[C@H]1CO
13.3,3.7,9.6,CCNC(=O)C[C@H]1CC[C@H]2[C@@H](COC[C@@H](O)CN2C(=O)C2CCOCC2)O1
-1.5,1.8,-3.3,COC(=O)[C@@H]1[C@@H](CO)[C@@H]2Cn3c(ccc(-c4cccnc4)c3=O)[C@@H]2N1Cc1ccccc1F
20.9,14.4,6.5,CN1c2ccc(Br)cc2[C@H]2[C@H](CCN2C(=O)C2CCOCC2)[C@@H]1CO
8.8,0.1,8.7,COc1ccccc1NC(=O)N[C@@H]1C=C[C@@H](CC(=O)N[C@@H](C)c2ccccc2)O[C@H]1CO
22.5,16.2,6.3,COc1ccc2c3c(n(C)c2c1)[C@H](CO)N(C)CC31CN(C(=O)C2CCC2)C1
1.6,0.7,0.9,CN(C)C(=O)C[C@@H]1CC[C@H]2[C@@H](COC[C@H](O)CN2CC2CCOCC2)O1
3.4,-2.4,5.7,CS(=O)(=O)Nc1ccc2c(c1)[C@H]1C[C@H](CC(=O)O)O[C@H](CO)[C@H]1O2
1.2,0.8,0.4,COCC(=O)NC[C@@H]1[C@H](c2ccc(-c3ccccc3)cc2)[C@@H](CO)N1C(C)=O
0.1,8.6,-8.5,O=C(C1CCOCC1)N1CC2(C1)[C@H](c1ccccc1)[C@H](CO)N2C(=O)CC1CC1
-2.1,5.0,-7.1,CC(C)(C)[S@@](=O)N1Cc2cc(C(=O)NCc3ccccn3)nc(-c3cccc(-c4ccccc4F)c3)c2[C@H]1CCO
?,·,·,O=C(Cc1ccccc1)N1CC2(C1)[C@H](c1ccccc1)[C@H](CO)N2S(=O)(=O)Cc1ccccc1
0.8,0.1,0.7,C[C@H](CO)N1C[C@H](C)[C@H](CN(C)Cc2ccc(C(=O)Nc3ccccc3N)cc2)Oc2c(NC(=O)C3CCCCC3)cccc2C1=O
0.9,2.9,-2.0,CC(=O)Nc1ccc2c(c1)C(=O)N(C)[C@@H]1CC[C@@H](CC(=O)NCc3ccc4c(c3)OCO4)O[C@H]1CO2
0.8,-0.6,1.4,C[C@@H]1CN([C@@H](C)CO)C(=O)Cc2cc(NC(=O)c3ccncc3)ccc2O[C@H]1CN(C)C(=O)Nc1ccc(F)cc1
5.6,-7.4,13.0,CCN1[C@@H]2c3ccc(-c4ccccc4)c(=O)n3C[C@@H]2[C@@H](CO)[C@@H]1C(=O)NCc1ccccc1
-3.6,6.9,-10.6,C[C@H]1CN([C@@H](C)CO)C(=O)c2ccccc2-c2ccccc2CO[C@H]1CN(C)Cc1cccc(C(=O)O)c1
-3.8,-6.8,3.0,C[C@@H]1CN([C@H](C)CO)C(=O)c2cc(C#Cc3cccc(F)c3)cnc2O[C@@H]1CN(C)CC1CCCC1
2.7,3.1,-0.3,CCC(=O)N1CC2(C1)[C@@H](c1ccc(-c3ccccc3)cc1)[C@@H](CO)N2S(C)(=O)=O
2.7,0.9,1.8,COC(=O)C[C@H]1C[C@H]2c3cc(N(C)C)ccc3O[C@H]2[C@@H](CO)O1

Other structures follow.
DUX4 inh,DUX4 inh control,DUX4 inh difference,compound
4.3,0.7,3.6,CO[C@H]1CN(C)C(=O)c2ccc(NS(C)(=O)=O)cc2OC[C@H](C)N(Cc2ccccc2)C[C@@H]1C
17.0,0.6,16.4,CCOC(=O)N(C)C[C@H]1OCc2ccccc2-c2c(n(C)c3ccccc23)C(=O)N([C@H](C)CO)C[C@H]1C
-2.7,-4.1,1.4,CO[C@@H]1CN(C)C(=O)c2cc(NS(=O)(=O)c3ccc(Oc4ccccc4)cc3)ccc2OC[C@H](C)NC[C@H]1C
-1.5,2.4,-3.9,C/C=C/c1ccc([C@H]2[C@@H](CO)N(c3nc(CC)cs3)[C@H]2CNC(C)C)cc1
-2.5,0.8,-3.3,CNC[C@@H]1Oc2ccc(NC(=O)NC3CCCCC3)cc2CC(=O)N([C@H](C)CO)C[C@@H]1C
?,·,·,O=C(NCC1CC1)[C@H]1[C@H](CO)[C@H]2Cn3c(ccc(C4=CCCCC4)c3=O)[C@H]2N1Cc1ccccc1F
-2.0,2.1,-4.1,CCC(=O)N1[C@H](CO)[C@H](c2ccc(C#CC(C)(C)O)cc2)[C@@H]1CN(C)C(C)=O
0.4,3.5,-3.1,C[C@@H]1CCCCO[C@@H](CN(C)S(=O)(=O)c2ccccc2)[C@H](C)CN([C@H](C)CO)C(=O)c2cc(NC(=O)Nc3ccc4c(c3)OCO4)ccc2O1
10.4,4.1,6.4,O=C(c1cccnc1)N1CC(=O)N2[C@H](C1)[C@H](c1ccc(-c3ccccc3F)cc1)[C@@H]2CO
5.4,7.0,-1.7,O=C(C[C@@H]1CC[C@@H]2[C@H](COC[C@H](O)CN2C(=O)Nc2ccc(F)cc2)O1)NC1Cc2ccccc2C1
0.9,0.9,-0.1,COc1cccc(NC(=O)Nc2ccc3c(c2)C(=O)N(C)[C@H]2CC[C@@H](CC(=O)O)O[C@@H]2CO3)c1
0.9,2.2,-1.3,COc1ccccc1NC(=O)N1C[C@H](O)COC[C@@H]2O[C@H](CC(=O)NCCc3ccccc3)CC[C@H]21
2.0,-6.5,8.5,C/C=C/c1ccccc1[C@H]1[C@@H](C#N)N(c2ncc(CC)s2)[C@@H]1CO
3.5,4.9,-1.4,C[C@H](CO)N1C[C@H](C)[C@H](CN(C)C(=O)c2ccc3ccn(C)c3c2)OCc2cnnn2CCCC1=O
9.6,10.1,-0.5,COc1ccc(NC(=O)Nc2ccc3c(c2)[C@H]2C[C@H](CC(=O)NCc4ccc5c(c4)OCO5)O[C@H](CO)[C@H]2O3)cc1
-1.2,0.6,-1.8,C[C@H](CO)N1C[C@H](C)[C@@H](CN(C)C(=O)c2ccncc2)OCCCC[C@H](C)Oc2ccc(NC(=O)NC3CCCCC3)cc2C1=O
-3.4,-0.5,-2.9,C[C@H]1CN([C@@H](C)CO)C(=O)Cc2cc(NC(=O)c3ccncc3)ccc2O[C@H]1CN(C)C(=O)Nc1ccc(F)cc1
-3.9,4.1,-8.1,CO[C@@H](CN(C)C(=O)C1CCOCC1)[C@H](C)CN([C@H](C)CO)S(=O)(=O)c1ccccc1
-5.2,-10.0,4.8,O=S(=O)(c1ccc(F)cc1)N1CC[C@@H]2[C@H](CO)Nc3ccc(C#CC4CCCCC4)cc3[C@@H]21
-1.8,-7.7,5.9,CC(C)CC#Cc1ccc([C@@H]2[C@H]3CN(C(=O)NC(C)C)CC(=O)N3[C@H]2CO)cc1
5.6,0.7,5.0,COCC(=O)Nc1ccc2c(c1)[C@H]1C[C@H](CC(=O)N[C@@H](C)c3ccccc3)O[C@H](CO)[C@H]1O2
1.9,4.3,-2.4,C/C=C/c1ccc([C@@H]2[C@H](CO)N(C(=O)CC)C23CN(S(=O)(=O)CC)C3)cc1

Given with tabs: six of the compounds above
Molecule	DUX4 inh	DUX4 inh control	DUX4 inh difference
C/C=C/c1ccc([C@@H]2[C@H](CO)N(C(=O)CC)C23CN(S(=O)(=O)CC)C3)cc1	1.9	4.3	-2.4
COc1cccc(NC(=O)Nc2ccc3c(c2)C(=O)N(C)[C@H]2CC[C@@H](CC(=O)O)O[C@@H]2CO3)c1	0.9	0.9	-0.1
CCOC(=O)N(C)C[C@H]1OCc2ccccc2-c2c(n(C)c3ccccc23)C(=O)N([C@H](C)CO)C[C@H]1C	17.0	0.6	16.4
C[C@H]1CN([C@@H](C)CO)C(=O)Cc2cc(NC(=O)c3ccncc3)ccc2O[C@H]1CN(C)C(=O)Nc1ccc(F)cc1	-3.4	-0.5	-2.9
O=C(C[C@@H]1CC[C@@H]2[C@H](COC[C@H](O)CN2C(=O)Nc2ccc(F)cc2)O1)NC1Cc2ccccc2C1	5.4	7.0	-1.7
O=S(=O)(c1ccc(F)cc1)N1CC[C@@H]2[C@H](CO)Nc3ccc(C#CC4CCCCC4)cc3[C@@H]21	-5.2	-10.0	4.8

Source: PubChem BioAssay
